# Mtb growth – Mycobacterium tuberculosis H37Rv growth inhibition, putative kinase inhibitor library, confirmatory dose response (AID 2842); inhibition, % at 10 µg/mL, or IC90 in µg/mL where a hit was titrated; 24,000 compounds, 5.2% hits; M. tuberculosis H37Rv growth inhibition; higher % means a stronger effect; some inactives read as strong as hits;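 active means confirmed in a dose series; about a fifth of its hits are not listed in these tables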;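 further: bacteria incubated one week before Alamar blue readout; 0% = bacteria only wells and 100% = bacteria with high antibiotic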
# * = called active by the depositor. This is a subset (hit frequency here may not be typical).
structure,Mtb growth
O=C(Nc1nnc(-c2ccccn2)o1)c1ccc(F)cc1,84%
Cc1ccc(NC(=O)CSc2nnc(C)c(=O)n2N)c(C)c1,-4%
Cc1ccc(N2CC(NC(=O)NCc3ccco3)CC2=O)cc1C (stereo not drawn),1%
Cc1cc(NS(=O)(=O)c2ccc(NC(=O)c3cc(Cl)cc(Cl)c3)cc2)no1,-9%
Cc1ccc(C)c2[nH]c(=O)c(CCNC(=O)c3cccc(Br)c3)cc12,-2%
Cc1cc(Br)ccc1NS(=O)(=O)c1c[nH]c(=O)[nH]c1=O,-8%
O=C(O)c1cccc(N2C(=O)/C(=C/c3ccc([N+](=O)[O-])cc3)SC2=S)c1,-1%
CCOC(=O)c1nn(-c2ccc(C(F)(F)F)cc2)c(=O)c2c(NC(=O)c3cccc(OC)c3)scc12,10%
COc1ccc(C(=O)c2cn(CC(=O)Nc3ccc(F)cc3)c3ccc(F)cc3c2=O)cc1,10%
Cc1ccc(NC(=O)c2ccc(-n3nncc3C)cc2)cc1,-9%
COCC(=O)Nc1c(C(=O)Nc2cccc(Cl)c2)oc2ccccc12,6%
COCCOC(=O)c1sc2ncn(CC(=O)NCc3ccco3)c(=O)c2c1C,4%
Cc1ccc(NC(=O)Cn2nnc(C(=O)NCc3ccccc3)c2N)cc1C,-4%
O=C(Nc1nnc(-c2ccco2)o1)c1cc2cc([N+](=O)[O-])ccc2s1,10%
CCOc1ccc(C(=O)Nc2c(N)nc(SCC(=O)Nc3nccs3)[nH]c2=O)cc1,-10%
Cc1cc(S(=O)(=O)Nc2cc3c4c(c2)CCN4C(=O)CC3)ccc1F,-1%
COc1cccc(-c2nnc(SCC(=O)NCc3cccnc3)n2-c2ccccc2)c1,-9%
CCOC(=O)c1c(NC(=O)c2cccs2)sc2c1C(C)CCC2 (stereo not drawn),13%
COCCOC(=O)c1c(C)oc2ccc(NS(=O)(=O)c3cc([N+](=O)[O-])ccc3Cl)cc12,-10%
Cc1nnc(N/N=C/c2cccnc2)[nH]c1=O,1%
O=C(CSc1nc2c(c(=O)n1-c1ccc(Cl)cc1)SCC2)Nc1ccccc1C(F)(F)F,-3%
CC(=O)Nc1ccc(N2C(=O)/C(=C/c3cccc(O)c3)SC2=S)cc1,-1%
CCC(C(=O)N1CC(=O)Nc2ccc(Br)cc2C1c1ccc(F)cc1)c1ccccc1 (stereo not drawn),34%
COc1cc(/C=N/NC(=O)CN2CCOCC2)ccc1O,-9%
CCN1CCN(Cc2c(O)ccc3c2O/C(=C\c2ccc(OC)c(OC)c2)C3=O)CC1,9%
COc1ccc2nc(-c3ccc(C)c(NS(=O)(=O)c4ccc(F)c(C)c4)c3)cn2n1,-9%
Cc1sc2ncnc(SCC(=O)NC(Cc3ccccc3)C(=O)O)c2c1C (stereo not drawn),-10%
CC(Oc1ccccc1)C(=O)Nc1c(C(=O)Nc2ccc3c(c2)OCCO3)oc2ccccc12 (stereo not drawn),20%
Cc1cc(C)cc(-n2nnc3c(=O)n(Cc4cccnc4)cnc32)c1,-8%
O=C(NCc1ccccc1)C(=O)Nc1cc2c3c(c1)CCC(=O)N3CCC2,5%
O=C(NCCSc1c[nH]c2ccccc12)Nc1c[nH]c2ccccc12,10µg/mL*
Cc1ccc(C)c2[nH]c(=O)c(CCNC(=O)CCc3ccccc3)cc12,-1%
Cc1ccc(-c2csc(NC(=O)c3ccc(S(=O)(=O)N4CCCC4)cc3)n2)cc1,3%
O=C(CSc1cn(Cc2ccccc2)c2ccccc12)Nc1ccccc1,1%
CN(C)CCCNc1ncnc2sc3c(c12)CCCC3,2%
CC1=C(C(=O)Nc2ccccc2Cl)C(c2cccc(Br)c2)NC(=O)N1 (stereo not drawn),3%
CCOc1ccc(NC(=O)c2sc3[nH]c(=O)c(C(=O)O)cc3c2N)cc1,-2%
O=c1oc2cc(OCc3ccc(Cl)cc3Cl)ccc2c2c1CCCC2,-6%
CCc1ccccc1NC(=O)c1cnc2sccn2c1=O,-4%
Cc1nnc(NC(=O)CSc2cn(CCNC(=O)c3ccc(Cl)cc3)c3ccccc23)s1,10%
COc1cccc(C(=O)Nc2c(C(=O)Nc3ccc(Cl)cc3)oc3ccccc23)c1OC,5%
Cc1ccccc1-c1nnc(NC(=O)c2ccccc2)s1,-1%
COc1ccc(OC)c(NC(=O)CSc2nncc(=O)n2N)c1,-10%
O=C(Nc1nnc(-c2cc(Cl)ccc2Cl)o1)c1ccc([N+](=O)[O-])cc1,40%
CCn1c(=O)c2c(nc3n(-c4cc(Cl)ccc4OC)c(-c4ccccc4)cn23)n(C)c1=O,1%
Cc1cc(C)c(NC(=O)CSc2nc(N)c(NC(=O)c3ccc(Br)o3)c(=O)[nH]2)c(C)c1,-3%
Cc1cccc(-c2nc(C(N)=O)c3[nH]c(=O)n(-c4ccc5c(c4)OCO5)c3n2)c1,-11%
COc1ccc(/C=C2\SC(=O)N(Cc3ccc(C(=O)O)cc3)C2=O)cc1,-17%
Nc1nc(SCc2ccc(Cl)c(Cl)c2)[nH]c(=O)c1NC(=O)c1ccccc1,-5%
CCCCSc1nc2c(c(=O)[nH]1)C(c1ccc(C)s1)C1=C(CC(C)(C)CC1=O)N2 (stereo not drawn),18%
C=C(C)Cn1c(SCC(C)O)nc2c1c(=O)[nH]c(=O)n2C (stereo not drawn),4%
C#CCn1c(=NC(=O)c2ccco2)sc2cc(NC(C)=O)ccc21,14%
O=C(NCc1ccccc1Cl)C(=O)Nc1cc2c3c(c1)CCC(=O)N3CCC2,2%
Cc1cccc(-n2c(=O)cc(N3CCN(c4ccc(F)cc4)CC3)[nH]c2=O)c1,-15%
Cc1cccc(NC(=O)CSc2nnc(Cc3ccc(Cl)cc3)c(=O)n2N)c1C,-1%
CCOc1ccccc1NC(=O)c1oc2ccccc2c1NC(=O)c1ccccc1C(F)(F)F,-1%
COc1ccccc1CNC(=O)C(=O)Nc1cc2c3c(c1)C(C)C(=O)N3CCC2 (stereo not drawn),2%
Fc1ccc(-c2nnc3ccc(SCc4cccnc4)nn23)cc1,7%
CCC1CCCCN1S(=O)(=O)c1ccc(C(=O)Nc2sccc2C(=O)NC)cc1 (stereo not drawn),-6%
Cc1ccccc1C(=O)Nc1ccc(S(=O)(=O)Nc2onc(C)c2C)cc1,-9%

# Further structures:
Molecule	Mtb growth
Cn1c(=O)c2c(SCC(=O)Nc3cc(C(F)(F)F)ccc3Cl)nc(-c3ccc([N+](=O)[O-])cc3)nc2n(C)c1=O	-13%
Cc1ccccc1C(=O)N=Nc1c(O)[nH]c2c(Br)cc(Br)cc12	97%
Cc1ccccc1CSC1=NCCN1C(=O)c1ccc([N+](=O)[O-])cc1	13%
O=C(Nc1ccc([N+](=O)[O-])cc1)c1oc2ccccc2c1NC(=O)c1c(F)cccc1F	6%
Cc1cccc(CSc2nc3c(c(=O)[nH]c(=O)n3C)n2CCC(C)C)c1	-4%
O=C(CSc1ccc2nnc(-c3cccnc3)n2n1)NCc1ccccc1	-5%
O=C(Nc1nnc(-c2ccccc2)s1)c1ccc(S(=O)(=O)N2CCOCC2)cc1	-6%
COC(=O)C(C)Sc1nc2c(c(=O)[nH]c(=O)n2C)n1CCC(C)C (stereo not drawn)	0%
COc1ccccc1NC(=O)C1=C(C)Nc2ncnn2C1c1ccc(O)c([N+](=O)[O-])c1 (stereo not drawn)	8%
COc1cccc(C(=O)NCCc2cc3c(C)ccc(C)c3[nH]c2=O)c1OC	-6%
Cc1ccc2cc(CCNC(=S)Nc3cccc(F)c3)c(=O)[nH]c2c1	21%
Cc1ccc(-c2nnc3c4cc5c(cc4n(Cc4ccc(F)cc4)cc2-3)OCCO5)cc1	27%
COc1ccc(C(=O)NNc2ncnc3c2cnn3-c2ccc(Cl)c(Cl)c2)cc1	-7%
COc1ccc(-c2nnc(NC(=O)/C=C\c3ccc4c(c3)OCO4)s2)cc1	-5%
O=C(CSc1ncnc2c1oc1ccccc12)Nc1nccs1	10%
NS(=O)(=O)c1ccc(O)c(N2C(=O)c3cccc4c(C(=O)c5ccccc5)ccc(c34)C2=O)c1	8%
Cc1cc2cc(CCNC(=O)c3ccc(S(=O)(=O)N4CCOCC4)cc3)c(=O)[nH]c2cc1C	16%
C=C(C)CSc1nc2c(c(=O)[nH]c(=O)n2C)n1CCC(C)C	21%
O=C(c1ccc([N+](=O)[O-])cc1)N(c1ccc2oc(=O)sc2c1)S(=O)(=O)c1ccccc1	-9%
COc1cn(CC(=O)Nc2cc(C)on2)c(CN2CCCC2)cc1=O	-3%
COc1ccc(S(=O)(=O)c2cn(Cc3cccc(Cl)c3)c3cc(OC)c(OC)cc3c2=O)cc1	4%
COc1ccc2nc(Nc3nnc(-c4ccccc4)o3)sc2c1	6%
CCOC(=O)N1CCN(c2ncnc3c2cnn3C)CC1	-1%
COc1cccc(-c2nc3n(n2)C(c2ccccc2F)C(C(N)=O)=C(C)N3)c1 (stereo not drawn)	3%
CCOC(=O)CNC(=O)CSc1nnc(-c2c[nH]c3ccccc23)n1CCOC	-7%
COc1ccc2nc(-c3ccc(F)c(NC(=O)c4ccccc4C(F)(F)F)c3)cn2n1	5%
Cc1cccc(OCC(=O)Nc2c(C(=O)Nc3cccc(Cl)c3)oc3ccccc23)c1	-5%
O=c1c2[nH]c3ccccc3c2nc(SCc2ccc(Cl)c(Cl)c2)n1-c1ccc(F)cc1	-5%
O=c1c(S(=O)(=O)c2ccc(F)cc2)cn(Cc2ccc(Cl)cc2)c2ccc(F)cc12	3%
O=C(CN1C(=O)c2ccccc2C1=O)Nc1nc(-c2ccc(-c3ccccc3)cc2)cs1	-4%

# Next section; the last six above are carried over.
Molecule	Mtb growth
CCOC(=O)CNC(=O)CSc1nnc(-c2c[nH]c3ccccc23)n1CCOC	-7%
COc1ccc2nc(-c3ccc(F)c(NC(=O)c4ccccc4C(F)(F)F)c3)cn2n1	5%
Cc1cccc(OCC(=O)Nc2c(C(=O)Nc3cccc(Cl)c3)oc3ccccc23)c1	-5%
O=c1c2[nH]c3ccccc3c2nc(SCc2ccc(Cl)c(Cl)c2)n1-c1ccc(F)cc1	-5%
O=c1c(S(=O)(=O)c2ccc(F)cc2)cn(Cc2ccc(Cl)cc2)c2ccc(F)cc12	3%
O=C(CN1C(=O)c2ccccc2C1=O)Nc1nc(-c2ccc(-c3ccccc3)cc2)cs1	-4%
CC1CC(C)CN(C(c2ccco2)c2sc3ncnn3c2O)C1 (stereo not drawn)	3%
CCOC(=O)C1=C(C)NC(=O)NC1c1cc(Br)c(O)c(OC)c1 (stereo not drawn)	3%
CCCCOc1ccc(C(=O)NCCc2cc3c(OC)ccc(OC)c3[nH]c2=O)cc1	-1%
Cc1c(C(=O)NCc2nnc(SCC(=O)N3CCCCCC3)o2)cccc1[N+](=O)[O-]	-2%
Cc1cccc(C(=O)NCC(=O)NNc2ncnc(N)c2[N+](=O)[O-])c1	8%
Cc1cccc(NCC(=O)Nc2ncc(Cc3cc(Cl)cc(Cl)c3)s2)c1	-5%
CCc1cccc(OCC(O)Cn2c(NN=Cc3ccc(O)cc3O)nc3c2c(=O)[nH]c(=O)n3C)c1 (stereo not drawn)	-11%
CCN(CC)S(=O)(=O)c1ccc(C(=O)Nc2nnc(-c3ccc(Cl)cc3)s2)cc1	-5%
CC(=O)N1CCCc2ccc(NC(=O)C(=O)Nc3cccc([N+](=O)[O-])c3)cc21	3%
COc1ccc(N2CC(NS(=O)(=O)c3cccnc3)CC2=O)cc1 (stereo not drawn)	23%
Cc1nnc(NC(=O)CSc2nc(CC(C)(C)C)nc3c2c(=O)n(C)c(=O)n3C)s1	-3%
O=C(Cc1ccccc1)Nc1nnc(-c2ccc(Cl)cc2)o1	14µg/mL*
Cc1ccc(C(=O)NCCc2cc3c(C)ccc(C)c3[nH]c2=O)cc1C	-10%
Cc1ccc(C)c2[nH]c(=O)c(CCNC(=O)CCC3CCCC3)cc12	-2%
O=C(Cn1cnc2c(nnn2Cc2ccc(F)cc2)c1=O)c1ccccc1	9%
Cc1c(NC(=S)SCc2ccccc2)c(=O)n(-c2ccccc2)n1C	-3%
O=C1C=C(Nc2ccc(Cl)cc2)C(=O)N1c1cccc(C(F)(F)F)c1	-9%
COc1ccc2cc(CCNC(=O)Cc3cccc4ccccc34)c(=O)[nH]c2c1	-3%
COc1ccccc1-n1c(=O)[nH]c2c(C(N)=O)nc(C3CCCCC3)nc21	15%
CC1Cc2nc(SCc3ccccn3)n(-c3ccc(F)cc3)c(=O)c2S1 (stereo not drawn)	20%
CCOC(=O)c1nn(-c2ccccc2)c(=O)c2c(NC(=O)c3ccc(S(=O)(=O)N4CCCCC4)cc3)scc12	6%
Clc1ccc2nc(N3CCN(c4nc5ccc(Cl)cc5s4)CC3)sc2c1	-5%
CC(C)N1CCc2c(sc(NC(=O)c3ccc(S(=O)(=O)N4CCCCCC4)cc3)c2C(N)=O)C1	6%
CC(=O)c1sc(NC(=O)c2cccc3ccccc23)nc1C	3%
CCOC(=O)COc1cc(=O)[nH]c2ccc(OC)cc12	-1%
O=C(CSc1nnc2ccc(-c3ccccc3)nn12)Nc1ccc(F)cc1	-20%
COc1ccc(C(=O)c2cn(Cc3ccc(F)cc3)c3cc4c(cc3c2=O)OCCO4)cc1	4%
COc1ccc2sc(Nc3ccccc3Cl)nc2c1	17%
O=C(O)c1cc(Cl)ccn1	6%
Cc1ccc(Cl)cc1-n1c(=O)cc(N2CC(C)OC(C)C2)[nH]c1=O (stereo not drawn)	-9%

# 3 consecutive records already listed:
Molecule	Mtb growth
COc1ccc2sc(Nc3ccccc3Cl)nc2c1	17%
O=C(O)c1cc(Cl)ccn1	6%
Cc1ccc(Cl)cc1-n1c(=O)cc(N2CC(C)OC(C)C2)[nH]c1=O (stereo not drawn)	-9%

# Next part.
Molecule	Mtb growth
COc1ccccc1OCC(=O)Nc1ncc(Cc2ccc(Cl)cc2)s1	11%
O=C(CSc1nnc(CNC(=O)c2cccc(C(F)(F)F)c2)o1)NCc1ccc2c(c1)OCO2	-26%
COc1cccc2sc(Nc3nc(-c4nc5ccccc5s4)cs3)nc12	6%
COc1ccc(N2CCN(C(=O)c3ccc4nccnc4c3)CC2)cc1	4%
Cc1ccc(C)c(NC(=O)CSc2nnc(Cn3c(=O)sc4ccccc43)n2C)c1	-11%
